HTT prom inh: inhibitors of huntingtin promoter activity; HEK293 HTT promoter firefly luciferase reporter (activity 0% = vehicle and -100% = no light), 24 h; Potency, µM (highest dose often 57.5 µM), for the others: at the highest dose activity change, negative = inhibition, hits mostly inhibitors; actives 0.93% (n = 48,000); AID 1508623; active = well fitted inhibition curve with a large enough effect; inconclusive = small, poorly fitted or top-dose-only effect; inactive = no such curve, though single readings can be large or run the other way; note: nearly all actives have a fitted effect of over 50% in size
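Quantitative HTS used concentration series of up to 57.5 uM final on HEK293 luciferase reporter cells, 24 h at 37 degrees C. Readout was Dual-Glo firefly luminescence.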
PMP22 txn prim: modulators of PMP22 gene transcription in S16 Schwann cells; S16 Pmp22-F2sN Schwann cells (luciferase reporters placed in the Pmp22 gene), FLuc/NLuc coincidence luminescence, 24 h; Potency, µM (titrated, usually from 57.5 µM), for the others: at the highest dose activity change, negative = inhibition, most hits filed as inhibitors; actives 2% (n = 43,000); AID 1508649; active = clear falling dose curves in both reporters; inconclusive = both reporters move, but less clearly or upward; inactive = either reporter flat; the % is the NLuc reporter signal; note: % is set by controls: 0 for no effect and ±100 for the full control effect; some results filed as inactive show a strong effect at the top dose
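S16 Schwann cells carrying FLuc/NLuc coincidence reporter in the Pmp22 3' UTR treated with compound 24 h at 37C; FLuc then NLuc luminescence read sequentially by dual-luciferase reagents.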
Active calls of the source: *; ? = inconclusive; . = not tested or not shown; & = joins results of further samples; [ ] = dose if it differs, or a comment. Potency is the fitted concentration of half-maximal effect.

Below each compound: HTT prom inh	PMP22 txn prim
COc1ccc(S(=O)(=O)N2CCN(c3ccccc3F)CC2)cc1-c1noc(C)n1
  8%	-6%
O=C1NC(=O)C(=Cc2ccc3c(c2)OC(F)(F)O3)S1
  -24%	.
O=C(Cn1ncc2c1-c1ccccc1OC2)N1CCN(c2ccccc2)CC1
  -19%	-28%
O=C(CSc1nc2ccsc2c(=O)n1-c1ccc(Cl)cc1)NCc1ccc(Cl)cc1
  ?	?
CCN(CC)C(=O)CSc1nc(-c2ccccc2)cc(-c2ccc(OC)cc2)c1C#N
  -3%	?
CCCCCNC(=O)c1cc2c(=O)n3ccccc3nc2n1C
  71%[activator]	3%
COc1ccc(-n2cc(-c3ccccc3)c3c(NCc4cccc(Cl)c4)ncnc32)cc1
  ?	-11%
Cc1cc(=O)n(-c2ccccc2)n1C
  4%	.
CCN(CC)C(=O)c1sc2c(c1C)c(=O)n(CCc1ccccc1)c(=O)n2Cc1cc(C)ccc1C
  0%	-9%
COc1ccc(-c2nc(CN3CCC(C(=O)NCCc4ccccc4)CC3)c(C)o2)cc1OC
  0%	?

New compounds follow:
Below each compound: HTT prom inh	PMP22 txn prim
COc1ccc(-c2noc(CC(=O)N(C)c3cccc(C)c3)n2)cc1
  -10%	7%
C[C@]12CC[C@H](O)CC1=CCC1C2CC[C@]2(C)C(n3cnc4ccccc43)=CCC12 (some centres undefined)
  6%	.
CCc1ccc(CNC(=O)c2nn(-c3ccc(OC)c(Cl)c3)c(=O)c3c2c2ccccc2n3C)cc1
  -12%	-13%
COc1ccc(-n2nc3c(N4CCCC(C(=O)NCc5ccc(C)cc5)C4)nnc(C)c3c2C)cc1 (centres undefined)
  -19%	?
Cc1ccc(CN(Cc2ccco2)C(=O)COc2ccc(Cl)cc2Cl)cc1
  ?	?
CCCSc1ncc(Cl)c(C(=O)N(Cc2ccc(N(C)C)cc2)C2CCS(=O)(=O)C2)n1 (centres undefined)
  -26%	?
COc1cccc(C(=O)n2nc(-c3cccnc3)nc2NCc2ccc(F)cc2)c1
  ?	-18%
COc1ccccc1CNc1nccn(-c2ccccc2)c1=O
  9%	-5%
CCOC(=O)c1c(NC(=O)c2ccc(S(=O)(=O)N(C)C)cc2)sc2c1CCN(C)C2
  -1%	?
COc1cccc(CNC(=O)C(=O)Nc2ccc3nc4n(c(=O)c3c2)CCCCC4)c1
  2%	1%

Pulled one by one from the entries so far (four):
Below each compound: HTT prom inh	PMP22 txn prim
COc1cccc(C(=O)n2nc(-c3cccnc3)nc2NCc2ccc(F)cc2)c1
  ?	-18%
C[C@]12CC[C@H](O)CC1=CCC1C2CC[C@]2(C)C(n3cnc4ccccc43)=CCC12 (some centres undefined)
  6%	.
COc1ccc(-n2nc3c(N4CCCC(C(=O)NCc5ccc(C)cc5)C4)nnc(C)c3c2C)cc1 (centres undefined)
  -19%	?
COc1cccc(CNC(=O)C(=O)Nc2ccc3nc4n(c(=O)c3c2)CCCCC4)c1
  2%	1%

(more compounds)
Below each compound: HTT prom inh	PMP22 txn prim
CCc1ccc(CNC(=O)Cn2nc(-c3ccc(C)cc3)ccc2=O)cc1
  -9%	-25%
Cc1ccc(NC(=O)Cn2cc(S(=O)(=O)N3CCCC3)c(S(=O)(=O)N3CCCC3)c2)c(C)c1
  18%[11.5 µM]	3%
C=Cc1ccc(Cn2c(C)c(CNCc3ccccc3C)c(C(=O)O)c2C)cc1
  -5%	9%
Cc1c(-c2nsc(NC(=O)c3cccc(Cl)c3)n2)nnn1-c1ccccc1C(F)(F)F
  ?	?
Cc1cc(C)c2c(n1)sc1c(=O)n(-c3ccccc3C(F)(F)F)nnc12
  -2%	-1%
CCOc1ccccc1C(=O)N(Cc1sccc1C)C1CCS(=O)(=O)C1 (centres undefined)
  -11%	-1%
CCC1CN(C(=O)N2CCC(C(=O)NCCc3ccc(OC)cc3OC)CC2)c2cc(C)ccc2O1 (centres undefined)
  ?	-8%
CCc1ccc(C(=O)c2cn(CC(=O)Nc3ccc4c(c3)OCO4)c3ccc(OC)cc3c2=O)cc1
  -18%	-8%
COc1ccc(NC(=O)CSc2nc3nc(C)c(Cc4ccc(C)cc4)c(C)n3n2)cc1OC
  -25%	-19%
CCOC(=O)c1c(NC(=O)COc2ccc(Br)cc2)sc2c1CCCC2
  -1%	?

Additional results follow:
Below each compound: HTT prom inh	PMP22 txn prim
CS(=O)(=O)N(Cc1ccccc1)c1ccc(C(=O)Nc2ccc(Cl)cc2)cc1
  ?	?
COc1ccc(NC(=O)c2ccco2)cc1NC(=O)C(C)Oc1ccc(Cl)cc1Cl (centres undefined)
  ?	?
Cc1ccc(CN(C(=O)COc2ccc(F)cc2)C2CCS(=O)(=O)C2)o1 (centres undefined)
  -13%	-29%
Cc1ccc(CNC(C)c2ccccc2)s1 (centres undefined)
  5%	-1%
COc1ccccc1C(=O)Nc1nc2n(n1)C(c1ccc(F)cc1)C=C(c1ccc(Cl)cc1)N2 (centres undefined)
  ?	?
COc1ccc(-c2csc3ncnc(Nc4cccc(F)c4)c23)cc1
  -16%	?
CC1CCN(c2oc(/C=C/c3ccc(F)cc3)nc2C#N)CC1
  -10%	-53%
CCOC(=O)Cc1ccc(NC(=O)N2CCSc3ccccc32)cc1
  -2%	-8%
Cc1ccc(Cl)cc1N1CCN(C(=O)C2CCN(S(=O)(=O)c3cn(C)cn3)CC2)CC1
  -19%	-9%
CCOCCc1nn2c(=O)cc(COC(=O)c3ccc(NC(=O)c4cccs4)cc3)nc2s1
  -5%	?

Of the compounds above, 2 contain a CF3 group:
Below each compound: HTT prom inh	PMP22 txn prim
Cc1c(-c2nsc(NC(=O)c3cccc(Cl)c3)n2)nnn1-c1ccccc1C(F)(F)F
  ?	?
Cc1cc(C)c2c(n1)sc1c(=O)n(-c3ccccc3C(F)(F)F)nnc12
  -2%	-1%

Of the compounds above, these contain a cyano group.
Below each compound: HTT prom inh	PMP22 txn prim
CCN(CC)C(=O)CSc1nc(-c2ccccc2)cc(-c2ccc(OC)cc2)c1C#N
  -3%	?
CC1CCN(c2oc(/C=C/c3ccc(F)cc3)nc2C#N)CC1
  -10%	-53%

(listing goes on)
Below each compound: HTT prom inh	PMP22 txn prim
COc1cccc(N2CCN(C(=O)CCS(=O)(=O)c3ccc4c(c3)oc(=O)n4C)CC2)c1
  -13%	-30%
CCCc1c2oc(C(=O)O)cc(=O)c2cc2c(=O)cc(C(=O)O)n(CC)c12
  8%	.
COc1cc(Br)c(C2CC(=O)Nc3cc(OC)c(OC)c(OC)c32)cc1OC (centres undefined)
  -17%	24%
O=C(Nc1ccccc1Cl)C1CCN(c2nc3ccccc3[nH]2)CC1
  2%	-2%
CC(C)C(=O)OCc1cccc(OC(=O)[C@@H]2N3C(=O)[C@@H](NC(=O)Cc4ccccc4)[C@H]3SC2(C)C)c1
  -1%	.
CCOc1ccc(CN2C(=O)c3ccccc3Sc3ccc(C(=O)NCc4ccc5c(c4)OCO5)cc32)cc1
  -24%	11%
COc1ccccc1-c1noc(-c2ccc(NC3CCCC3)c([N+](=O)[O-])c2)n1
  40%[activator]	?
CCN1C(=O)c2ccccc2Sc2ccc(C(=O)NCCCN(CC(C)C)CC(C)C)cc21
  -5%	?
CC1(C)SCCN(S(=O)(=O)c2ccc(OCC#CCO)cc2)[C@@H]1C(=O)NO
  2%	.
COc1ccc(Cl)cc1NC(=O)c1cc(C)nn1-c1ccccc1
  -21%	1%

Additional records follow:
Below each compound: HTT prom inh	PMP22 txn prim
Cc1ccc(-c2noc(-c3ccc(NCc4cccnc4)c([N+](=O)[O-])c3)n2)cc1
  5%	?
O=C(NCCc1ccccc1)C(=O)NCC(c1cccnc1)N1CCN(c2ccc(F)cc2)CC1 (centres undefined)
  14µM*	?
Cc1ccc2nc(CSc3nnc(NC(=O)COc4ccccc4F)s3)cc(=O)n2c1
  4%	0%
Cc1c(C(=O)Nc2ccccc2Br)oc2ccc(S(=O)(=O)N3CCCCC3)cc12
  -12%	?
Cc1cccc(C(=O)NC(=O)Nc2ccc(-n3nc(C(F)(F)F)cc3C(F)(F)F)cc2)c1
  -20%	5%
Cc1cc(Cl)ccc1NC(=O)C(=O)NCc1ccco1
  -17%[11.5 µM]	1%
O=C(c1ccc(F)cc1)N1CCC[C@H](c2nc(-c3ccc(F)cc3)no2)C1
  0%	.
O=C(Nc1cnc(N2CCN(c3ccccc3)CC2)c(C(=O)O)c1)c1cccs1
  -8%	13%
O=C(NCCCN1CCN(c2ccccc2)CC1)c1ccc2nc(Cc3ccccc3)oc2c1
  ?	?
Cc1cccc(Cn2c(CN3CCC(C(=O)NC(C)C)CC3)cc3ccccc32)c1
  2%	?

Continued:
Below each compound: HTT prom inh	PMP22 txn prim
O=C(NCc1ccccc1Cl)c1ccc(NC(=O)N2CCSc3ncccc32)cc1
  -19%	6%
Cc1cc(OCC(=O)Nc2ncn[nH]2)c(C)c(C)c1Br
  5%	-9%
CCOc1cc(C2c3c(-c4ccc(Br)cc4)n[nH]c3C(=O)N2c2ccc(Cl)cc2)ccc1O (centres undefined)
  ?	?
CCCSCCCNC(=O)CN1C(=O)COc2ccc(S(=O)(=O)N3CCCC3)cc21
  -14%	0%
COc1ccc(CNS(=O)(=O)c2cc3c(cc2Cl)N(C(C)=O)CCO3)cc1
  -18%	-2%
COc1ccc(CNc2nc3c(S(=O)(=O)c4ccccc4)nnn3c3ccc(Cl)cc23)cc1
  11%	-7%
Cc1ccc(C)c(CNC(=O)c2ccc3c(c2)nc2n3CCCCC2)c1
  10%	-26%
Cc1cc(N2CCOCC2)cc2[nH]c(-c3c(NC[C@@H](O)c4cccc(Cl)c4)cc[nH]c3=O)nc12
  ?	.
COc1ccc(OC)c(CNC(=O)c2nn(C)c3c2CSc2ccccc2-3)c1
  -26%	-52%
CCOc1ccc(CCNC(=O)Cn2ncn3c(cc4sc(C)cc43)c2=O)cc1OCC
  -7%	-10%

Remaining list, next part.
Below each compound: HTT prom inh	PMP22 txn prim
Cc1ccccc1C(=O)Nc1ccccc1OCc1cc(=O)n2ccccc2n1
  2%	-16%
CNS(=O)(=O)Cc1ccc2[nH]cc(CCN(C)C)c2c1
  -4%&1%	.
CC(=O)N1CCc2cc(CNS(=O)(=O)c3ccc(C(C)(C)C)cc3)ccc21
  -40%	?
CCOC(=O)c1cnc2ccc(OCC)cc2c1N1CCN(c2cccc(Cl)c2)CC1
  ?	?
Cc1cccc(OCCCSc2nc(-c3ccc(C(C)(C)C)cc3)nc3cc(=O)[nH]n23)c1C
  5%	-38%
CCc1ccc(OCC(=O)N(Cc2cccs2)c2ccc(Cl)cc2)cc1
  ?	-3%
O=C(Nc1c(C(=O)c2ccccc2)oc2ccccc12)c1cc(=O)c2ccccc2o1
  -8%	0%
Cc1ccc(CNC(=O)CCS(=O)(=O)c2cc3c4c(c2)CCN4C(=O)CC3)cc1
  -8%	4%
CCc1ccc(OCC(=O)NC(Cc2c[nH]c3ccccc23)C(=O)O)cc1 (centres undefined)
  -11%	12%
CCOC(=O)c1cc(-c2ccc(OC)cc2)n(CCC(=O)Nc2nc3ccc(OCC)cc3s2)c1C
  ?	-13%

Further compounds.
Below each compound: HTT prom inh	PMP22 txn prim
CCOC(=O)c1ncn2c1CN(C)C(=O)c1cc(F)ccc1-2
  6%&0%	.
COc1cccc(CN(C(=O)c2oc3ccccc3c2C)C2CCS(=O)(=O)C2)c1 (centres undefined)
  -2%	-16%
CCOc1ccc(NC(=O)CSC2=Nc3ccccc3C3=NC(CCC(=O)NCc4ccco4)C(=O)N23)cc1 (centres undefined)
  16%	7%
COc1ccccc1CNc1ccc(-c2nc(C)no2)cc1[N+](=O)[O-]
  -13%	-69%
CCc1ccc(-n2nc(C)c3c(C)cc(=O)n(CC(=O)Nc4ccc(OC)c(OC)c4)c32)cc1
  -16%	-14%
Cc1ccc(NC(=O)C(=O)NCC(c2cccnc2)N2CCN(Cc3ccccc3)CC2)cc1 (centres undefined)
  -20%	?
O=C(NCCS(=O)(=O)N1CCN(c2ccccc2)CC1)C1CC(=O)N(c2ccccc2)C1 (centres undefined)
  -7%	4%
CCOC(=O)C1CCC(CN(Cc2ccc(OC)cc2)S(=O)(=O)c2ccc(F)c(C(=O)Nc3ccc(C)c(C)c3)c2)CC1 (centres undefined)
  -5%	16%
CCOC(=O)c1noc2ncnc(Nc3cccc(OC)c3)c12
  -25%	20%
COc1ccc(CNC(=O)c2ccc(CS(=O)Cc3ccccc3Cl)o2)cc1 (centres undefined)
  -3%	-26%

More entries
Below each compound: HTT prom inh	PMP22 txn prim
CCOc1cccc2c1N[C@@H](c1ccc(C(=O)O)cc1)[C@H]1CC=C[C@@H]21
  7%	?
CSc1ccc(C2c3c(oc4cc(C)cc(C)c4c3=O)C(=O)N2Cc2ccco2)cc1 (centres undefined)
  2%	26%
Cc1ccc(CCNC(=O)C(CC(C)C)NS(=O)(=O)c2ccc3c(c2)oc(=O)n3C)cc1 (centres undefined)
  -7%	-9%
CCCN(C(=O)c1cn(C)c(=O)c2ccccc12)c1ccccc1C
  -6%	-20%
Cc1ccccc1Cn1c(CN2CCC(C(=O)NCc3cccnc3)CC2)cc2ccccc21
  5%	?
CCOC(=O)CSc1ccc2nnc(CCNS(=O)(=O)c3ccccc3)n2n1
  -4%	-15%
Cc1cccc(NC(=O)CSc2ncc(-c3ccc(Br)cc3)[nH]2)c1
  -29%	-7%
COc1cc(OC)c(NS(=O)(=O)c2cc(-c3cnc(C)o3)ccc2OC)cc1Cl
  -29%	?
Cc1ccc(NC(=O)c2sc3ncnc(N(C)C4CCCCC4)c3c2C)cc1
  ?	?
